# Polio RdRp inh: poliovirus RdRp elongation inhibitors, primary screen, biochemical, fluorescence polarization, total intensity; Genome polyprotein (Poliovirus type 1 (strain Mahoney)), P03300; poliovirus polymerase elongation; stronger effect = lower value; % elongation, % (compound at 16.7 µg/mL); actives 0.66% (n = 150,000); AID 588519, 2011; in the data active means % elongation below about 90%; further: some results filed as inactive read as strong as hits
# Target sequence (P03300 1749-2209 limits assumed): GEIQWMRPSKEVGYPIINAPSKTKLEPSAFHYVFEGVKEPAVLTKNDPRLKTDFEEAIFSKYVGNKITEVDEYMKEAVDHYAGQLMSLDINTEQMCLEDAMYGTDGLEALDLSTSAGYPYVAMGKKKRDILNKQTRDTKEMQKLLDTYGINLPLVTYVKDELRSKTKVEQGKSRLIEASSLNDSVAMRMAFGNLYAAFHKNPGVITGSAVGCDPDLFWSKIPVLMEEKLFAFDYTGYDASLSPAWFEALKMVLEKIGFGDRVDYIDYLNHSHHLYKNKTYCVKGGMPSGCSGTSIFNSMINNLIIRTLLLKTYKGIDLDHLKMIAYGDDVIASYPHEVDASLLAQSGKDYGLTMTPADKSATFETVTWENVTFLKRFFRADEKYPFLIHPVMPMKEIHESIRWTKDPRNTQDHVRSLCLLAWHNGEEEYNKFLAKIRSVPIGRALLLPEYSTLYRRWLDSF
# Polio RdRp inh intensity: recorded beside Polio RdRp inh, whose call it bears; % elongation; measured here: total intensity read-out; formula for this scale not given here;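 total fluorescence in place of polarization; lower means less elongation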
# * = called active by the depositor. This is a subset. The share of hits here may be higher or lower than overall.
# The opening six records (preview)
SMILES,Polio RdRp inh,Polio RdRp inh intensity
Cc1c(Cl)cccc1NC(=O)CN1C(=O)COc2ccc(S(=O)(=O)Nc3ccccc3)cc21,109,110
COc1ccc(CNC(=O)Cn2c(SCC(=O)Nc3ccc(C)c(C)c3)nc3ccccc32)cc1,107,107
O=C(NCc1ccc(F)cc1)c1cc2c(s1)-c1ccccc1SC2,105,107
Cc1ccc(CNC(=O)Cc2csc3ccccc23)cc1,107,107
Cc1cccc(OCC(=O)NCC2(N3CCN(C)CC3)CCCCC2)c1C,102,94
CCN(CC)CCSc1nnc2c3cc(F)ccc3n(CC)c2n1,99,94

# The whole of this part, previewed entries included:
SMILES,Polio RdRp inh,Polio RdRp inh intensity
Cc1c(Cl)cccc1NC(=O)CN1C(=O)COc2ccc(S(=O)(=O)Nc3ccccc3)cc21,109,110
COc1ccc(CNC(=O)Cn2c(SCC(=O)Nc3ccc(C)c(C)c3)nc3ccccc32)cc1,107,107
O=C(NCc1ccc(F)cc1)c1cc2c(s1)-c1ccccc1SC2,105,107
Cc1ccc(CNC(=O)Cc2csc3ccccc23)cc1,107,107
Cc1cccc(OCC(=O)NCC2(N3CCN(C)CC3)CCCCC2)c1C,102,94
CCN(CC)CCSc1nnc2c3cc(F)ccc3n(CC)c2n1,99,94
CC(=O)Nc1ccc(NC(=O)c2cc(-c3cccs3)on2)cc1,100,107
CCOc1ccc(Nc2nc(C)c(NC(=O)c3ccc(C)cc3)c(Nc3ccc(OCC)cc3)n2)cc1,107,101
CCOC(=O)c1c(C)oc2nc(C)nc(NCc3cccc(OC)c3)c12,106,106
CCOc1ccc(Nc2cc(C)nc3nncn23)cc1,108,106
COc1ccc(CNC(=O)c2ccc(-c3nc(CS(=O)c4ccc(C)cc4)c(C)o3)cc2)cc1 (configuration not stated),109,116
Cc1ccc(CCNC(=O)CCN2N=C(c3ccc(C)cc3)CCC2=O)cc1,105,98
COCC(C)Nc1ncnc2c1cnn2-c1cccc(Cl)c1 (configuration not stated),101,107
CCN(CC)c1nn2c(=O)c(C(=O)NCc3ccccc3Br)cnc2s1,110,108
Cc1ccnc(NC(c2cc(C)ccc2O)c2ccc3cccnc3c2O)c1 (configuration not stated),125,139
COc1ccc(-c2cc(C(=O)OCC(=O)c3cccc(OC)c3)c3cccc(Cl)c3n2)cc1,106,111
CCOc1cc(Br)cc(C2NC(=O)c3c(sc4c3CCN(C)C4)N2)c1O (configuration not stated),103,107
O=C(NCCCN1CCN(c2ccc(F)cc2)CC1)Nc1ccc(Cl)cc1,102,106
COc1ccc(Br)cc1CNC(=O)c1ccc2c(c1)nc1n2CCCCC1,108,107
CCOC(=O)c1cccc(NC(=O)CCNS(=O)(=O)c2cccc3nonc23)c1,101,105
Cn1c(=O)oc2cc(S(=O)(=O)NC(Cc3ccccc3)C(=O)NCc3ccccc3Cl)ccc21 (configuration not stated),106,105
COC(=O)c1ccc2oc(=O)c(S(=O)(=O)c3ccc(C)cc3)cc2c1,102,104
CCCN(CCC)CCNC(=O)c1cc2c(=O)oc3ccc(C)cc3c2s1,88,90
CCOC(=O)c1cnn(-c2ccc(C(=O)Nc3ccc(OC(F)(F)F)cc3)cc2)c1N,109,100
Cc1ccc(CNC(=O)c2ccc(CN3CC(=O)N4CCCCC4C3=O)cc2)cc1 (configuration not stated),111,114
CC(=O)Nc1cccc(NC(=O)Cn2cnc3c(oc4ccccc43)c2=O)c1,109,107
Cc1cccc(CNC(=O)C2CCN(c3nn4cc(-c5ccc(F)cc5)nc4s3)CC2)c1,111,110
CCCCNc1ccc(-c2nc(-c3ccncc3)no2)cc1[N+](=O)[O-],106,111
CCOc1ccc(Nc2cc(C)nc3nc(Cc4ccc(Cl)cc4)nn23)cc1,107,110
CC1N=C2c3ccccc3N=C(SCC(=O)NCCc3ccc(Cl)cc3)N2C1=O (configuration not stated),105,107
NC(=O)c1cc(S(=O)(=O)N2CCCCC2)cs1,102,107
Cc1ccc(NC(=O)c2oc3ccc(S(=O)(=O)N(C)C4CCCCC4)cc3c2C)cc1Cl,114,107
CCN(CCN(C)C)C(=O)C1CCN(S(=O)(=O)c2c(C)noc2/C=C/c2ccccc2F)CC1,109,95
O=C(CSc1nc2ccccc2nc1Cc1ccc(Cl)cc1)N1CCCc2ccccc21,106,110
COc1cc(NC(=O)CCn2c(-c3ccccc3)cc(C(C)=O)c2C)cc(OC)c1,105,116
Cc1cc(=O)n2nc(N3CCC(C(=O)Nc4ccc(Br)cc4F)CC3)sc2n1,109,113

# Entries of single compounds, quoted from the list. Values in the order: Polio RdRp inh, Polio RdRp inh intensity
# O=C(NCc1ccc(F)cc1)c1cc2c(s1)-c1ccccc1SC2 in the list: 105, 107
# Cc1ccc(CCNC(=O)CCN2N=C(c3ccc(C)cc3)CCC2=O)cc1 in the list: 105, 98
# CCCCNc1ccc(-c2nc(-c3ccncc3)no2)cc1[N+](=O)[O-] in the list: 106, 111
# CC(=O)Nc1cccc(NC(=O)Cn2cnc3c(oc4ccccc43)c2=O)c1 in the list: 109, 107
# Cc1c(Cl)cccc1NC(=O)CN1C(=O)COc2ccc(S(=O)(=O)Nc3ccccc3)cc21 in the list: 109, 110

# Back to the main list; the two compounds before the break are reprinted first.
SMILES,Polio RdRp inh,Polio RdRp inh intensity
COc1cc(NC(=O)CCn2c(-c3ccccc3)cc(C(C)=O)c2C)cc(OC)c1,105,116
Cc1cc(=O)n2nc(N3CCC(C(=O)Nc4ccc(Br)cc4F)CC3)sc2n1,109,113
Cc1ccc(CNS(=O)(=O)c2ccc3c(c2)CC(C)N3C(=O)C2CCC2)cc1 (configuration not stated),108,106
Cc1ccc(CNC(=O)c2nn(C)c3c2CS(=O)(=O)c2ccccc2-3)cc1,106,110
CCOc1ccc2nc(NC(=O)c3cc(=O)c4ccc(C)cc4o3)sc2c1,81,148
COc1cccc(NC(=O)Cn2c(=O)oc3cc(S(=O)(=O)N4CCCCC4)ccc32)c1,103,105
Cc1ccccc1Nc1c(-c2ccc(N3CCOCC3)cc2)nc2cccc(C)n12,108,108
O=C(NCCc1ccccc1)c1sc2ncccc2c1-n1cccc1,105,104
COc1cccc(CNC(=O)C2CCN(S(=O)(=O)c3c(C)noc3/C=C/c3cccs3)CC2)c1,104,111
CCC(=O)N1c2ccccc2CC1C(=O)NCCc1cc(OC)c(OC)c(OC)c1 (configuration not stated),106,97
CCc1nn2c(=O)cc(COC(=O)CNC(=O)COc3ccc(C)cc3)nc2s1,106,104
CCN(CC)CCNC(=O)Cn1ncc2c3ccccc3n(Cc3ccc(Cl)cc3)c2c1=O,121,124
COC(=O)c1cc(S(=O)(=O)NCC2CCN(Cc3ccc(F)cc3)CC2)c[nH]1,105,110
CCOc1ccc(-c2cn3c(n2)sc2cc(C(=O)NCCc4ccc(OC)cc4OC)ccc23)cc1,108,108
COc1cccc(C(=O)CC2(O)C(=O)Nc3ccc(Cl)cc32)c1 (configuration not stated),106,104
CN(C)S(=O)(=O)c1ccc2c(c1)N(CC(=O)Nc1cccc(C(F)(F)F)c1)C(=O)CS2,112,113
N#Cc1nc(-c2ccc(COc3ccc(Cl)cc3)o2)oc1N1CCCCC1,111,110
CC(=O)Nc1ccc(S(=O)(=O)NC2(C(F)(F)F)C(=O)Nc3c2c(=O)[nH]c(=O)n3-c2cccc(Cl)c2)cc1 (configuration not stated),105,105
CCc1nnc(SCC(=O)Nc2cccc(C(F)(F)F)c2)c2cc3oc(C)cc3n12,107,110
Cc1cccc(OCCn2c(SCC(=O)O)nc3ccccc32)c1,108,108
O=C1C(c2ccc(F)cc2)N(CCc2ccc(Cl)cc2)C(=O)CN1C1CCCCC1 (configuration not stated),109,109
Cc1nnc(SCc2cc(=O)c3cc(F)ccc3[nH]2)n1C,109,117
Cc1ccc(NC(=O)C2(C)Cc3ccccc3C(=O)O2)c(C)c1 (configuration not stated),107,110
Cn1c(=O)c2c(-c3ccc(Br)cc3)n(CCc3ccccc3)cc2n(C)c1=O,100,92
CC(=O)Nc1nonc1-c1nnc(SCc2ccc(F)cc2)n1C,106,104
CCOC(=O)c1c(-c2ccccc2)oc2ccc(NS(=O)(=O)c3ccc(C)cc3)cc12,106,105
Cc1cccc2nc(Cn3c(=O)n(-c4ccc(Cl)cc4)c(=O)c4c5c(sc43)CCC5)cc(=O)n12,104,105
Cc1oc2c(c1C(=O)Nc1ccc(Cl)cc1F)C1=NCCN1C=N2,113,114
Cn1c(=O)cc(SCC(=O)NCc2ccc(F)cc2)c2ccc(Cl)cc21,108,109
O=C(NC1CC(=O)N(c2cccc(F)c2)C1)c1ccc(S(=O)(=O)N2CCCC2)cc1 (configuration not stated),105,108
COc1ccc(NC(=O)c2ccco2)cc1NC(=O)c1cccc(C)c1OC,95,73
O=C1CCc2cc(S(=O)(=O)NC(C(=O)Nc3ccc(F)cc3)c3ccccc3)ccc2N1 (configuration not stated),112,112
Cc1ccc(NC(=O)CCC(=O)N2Cc3ccccc3Oc3ncccc32)cc1Cl,104,111
COc1ccc(N2CCN(C(CNC(=O)C(=O)NCCCN(C)C)c3cccnc3)CC2)cc1 (configuration not stated),116,116
Cc1cc2c(cc3c(SCc4ccc(Cl)cc4)nnc(C)n32)o1,105,107
CCc1ccc(NC(=O)CC2C(=O)N(c3ccc(C)cc3)C(=O)N2CCc2ccncc2)cc1 (configuration not stated),100,102
COc1ccc(-c2cn3nc(N4CCCC(C(=O)NCc5ccccc5Cl)C4)sc3n2)cc1 (configuration not stated),111,114
COCCNC(=O)CSc1cn(CC(=O)N2CCCCCC2)c2ccccc12,114,119
COc1ccc(C(=O)Nc2ccc3nc(SCC(=O)N4CCOCC4)sc3c2)cc1,107,104
CCOCCCNC(=O)C(c1ccc(C)cc1)N(Cc1cccs1)C(=O)c1ccc(NC(C)=O)cc1 (configuration not stated),104,96
CCC(Sc1nc2cc(OC)c(OC)cc2c2nc(-c3ccccc3)nn12)C(=O)Nc1cccc(C)c1 (configuration not stated),109,109
O=C(COc1ccc(F)cc1)OCc1cc(=O)n2nc(-c3cccs3)sc2n1,104,115
CCOc1ccc(C(=O)NCC(c2ccco2)S(=O)(=O)c2ccc(C)cc2)cc1 (configuration not stated),102,106
O=C(NCc1cccc(Cl)c1)c1ccc(NC(=O)N2CC3CCCN3c3ccccc32)cc1 (configuration not stated),109,110
COc1cc(OC)cc(C(=O)Nc2ccc3oc(-c4ccccc4C)nc3c2)c1,106,109
COc1ccccc1CCNC(=O)Cc1c(C)c2cc3c(C)coc3cc2oc1=O,114,114
COc1ccccc1CNC(=O)Cc1csc2nc(-c3ccccc3)cn12,109,112
CCOC(=O)N1CCc2c(sc3c2c(=O)n(-c2ccc(Cl)cc2)c(=O)n3Cc2cccc(OC)c2)C1,104,99
COc1ccccc1N1CCN(C(=O)c2c(C)oc3ncn(CC(C)C)c(=O)c23)CC1,113,109
COc1ccc(N(CC(=O)NCc2ccc(F)cc2)S(=O)(=O)c2c(C)n[nH]c2C)cc1,108,113
CCOC(=O)c1ccc(NC(=O)C(CC)Sc2nc3ccncc3[nH]2)cc1 (configuration not stated),103,105
Cc1ncc(CO)c2c1Oc1nc(-c3ccc(F)cc3)nc(SCC(=O)N3CCCCC3)c1C2,109,106
Cc1oc2ncn(CC(C)C)c(=O)c2c1C(=O)NCCc1ccc(Cl)cc1,112,107
CCn1c(=O)c2cc(C(=O)NCCCN3CCN(C)CC3)sc2c2ccccc21,101,99
CCCOc1ccc(C(=O)Nc2cc3nn(-c4ccc(CC)cc4)nc3cc2C)cc1,106,110
O=C1c2ccccc2C(=O)C1(c1ccccc1)N1CCN(c2cccc(Cl)c2)CC1,106,99
COc1ccc2sc(N(Cc3cccnc3)C(=O)C3CCCCC3)nc2c1,114,112
COCCN1C(=O)N(c2cccc(OC)c2)C(=O)C1CC(=O)Nc1ccccc1 (configuration not stated),102,97
Cc1ccc(NS(=O)(=O)c2ccc3[nH]c(=O)ccc3c2)cc1N(C)C,104,111
CCCS(=O)(=O)N1CC(=O)N(c2ccccc2F)C(C)(C(=O)NC2CCCCCC2)C1 (configuration not stated),105,112
CCOC(=O)c1c(C)oc2nc(C)nc(NCC3CCN(Cc4ccc(C)cc4)CC3)c12,107,108
Cn1nc(C(=O)N2CCN(c3ccc(F)cc3)CC2)c2c1-c1ccccc1SC2,108,109
# The results go on:
SMILES,Polio RdRp inh,Polio RdRp inh intensity
CCc1ccc(-n2nc(C)c3c(C(=O)Nc4cc(C)c(Cl)cc4OC)cc(C)nc32)cc1,111,109
CCC(=O)N1CCc2cc(S(=O)(=O)CCC(=O)N3CCN(c4ccccc4Cl)CC3)ccc21,112,114
Cn1cc(CN(C(=O)Nc2ccccc2)C2CCCCC2)c2ccccc21,108,108
CCOc1cc(C2NC(=O)c3c(sc4c3CCN(C)C4)N2)ccc1OC(=O)c1ccccc1Cl (configuration not stated),110,124
Cc1ccc(CNC(=O)C2CCN(c3nc4ccc(C)cc4[nH]3)CC2)cc1,109,97
Cc1ccc2c(c1)C(c1ccc(F)cc1)N(C(=O)C(C)C)CC(=O)N2 (configuration not stated),104,106
Cc1cccc(N2CCN(C(=O)c3ccc4c(c3)N(Cc3cccc(Cl)c3)C(=O)c3ccccc3S4(=O)=O)CC2)c1C,107,103
COc1cccc(OCc2nc3ccccc3n2Cc2ccccc2C)c1,105,96
COc1cc(Cl)c(C)cc1NC(=O)CSc1ncc(S(=O)(=O)c2ccc(C(C)(C)C)cc2)c(=O)[nH]1,101,102
COc1ccc(N2CC(NC(=O)c3ccc(Br)o3)CC2=O)cc1 (configuration not stated),108,109
COc1ccc(-c2nc3n(n2)C(c2ccc(OC)cc2)C(C(=O)Nc2cccnc2)=C(C)N3)cc1 (configuration not stated),105,107
COc1ccccc1-n1cc(-c2ccc(C)cc2)nc1S(=O)(=O)CC(=O)Nc1ccccc1C(F)(F)F,105,97
CCc1ccc2oc(C(=O)NCC(c3ccc(Cl)cc3)N3CCOCC3)c(C)c2c1 (configuration not stated),109,110
